Screening results as filed in PubChem BioAssay.
Sa RN4220 lethal = growth inhibition of S. aureus RN4220, primary screen, OD600; 16 h; inhibition, % (concentration not given with the values); 330,000 tested, 0.33% active; AID 1259311, 2017;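 active = z-score of -3 or lower and OD600 up to 0.18 on both plates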;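 note: plate controls were untreated cells for no effect and reference antibiotic for full effect; stock transfer was 100 nL into about 80 µL; one replicate is shown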
Bead autofluor = flagged as autofluorescent in microsphere protease counterscreen. compound autofluorescence counterscreen, microsphere flow cytometry; active compounds read high. fluorescence intensity (concentration not given with the values). 360,000 tested, 3.1% active;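 active = at least 3 SD above the mean of all compounds, about 16000 in these data; inconclusive = too few beads counted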;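 note: 100 nL of 1 mM stock went into each well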
Mtb hypoxia inh = PubChem AID 1159583; M. tuberculosis hypoxia-regulated fluorescent reporter, fluorescence; fluorescence inhibition, % (no concentration beside the values); 300,000 tested, 0.1% active;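 active = 35 to 45% if threefold the growth effect, above 45% if 1.5-fold the growth effect; inactive = the rest, general growth blockers included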;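 note: wells of about 50 µL received 100 nL stock; 0% = vehicle wells and 100% = reference inhibitor wells; whole bacteria with a GFP reporter of the hypoxia response; strong numbers were not always called active; many hits fall short of the cut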
PrP 5UTR inh = inhibition of PrP 5' UTR reporter expression; cell-based PrP 5' UTR mRNA reporter, plate reader; inhibition, % (test concentration not listed); 340,000 tested, 0.35% active; AID 488862, 2010;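 active = every replicate at 50% or more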;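 note: 0 = median of the neutral control wells; tested in H4 reporter cells; numbers are from one replicate; inactives centre near -14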
BJeLR viability = MLPCN primary cell-based screen for lethality selective to Ras in HRASV12 cells; BJeLR (HRASV12) viability, CellTiter-Glo ATP luminescence, 48 h; reference of the scale not given here; inhibition, % (no concentration beside the values); 300,000 tested, 0.17% active;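 active = replicate mean above 50%; inconclusive = above 50% but judged a plate artefact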;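 note: 50 nL library stock added to about 25 µL; numbers are from one replicate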
ugtP null kill = growth inhibition of ugtP-null S. aureus, primary screen, RN4220 ugtP deletion, OD600; growth inhibition, % (no concentration beside the values); 330,000 tested, 0.54% active; 16 h; some inactives read as strong as hits;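 active = z-score under -3 and OD600 up to 0.15 on both plates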;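 note: plate controls were untreated wells for no effect and antibiotic for full effect; wells of about 80 µL received 100 nL stock; the first replicate is given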
Mtb hypoxia inh growth = further read-out of Mtb hypoxia inh, marked with its call; growth inhibition, %; measured here: M. tuberculosis growth (absorbance);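 0% = vehicle and 100% = reference antibiotic; read after six days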
An asterisk follows results filed as active; u = inconclusive; x = no result given.

SMILES	Sa RN4220 lethal	Bead autofluor	Mtb hypoxia inh	Mtb hypoxia inh growth	PrP 5UTR inh	BJeLR viability	ugtP null kill
O=C(NCc1ccc(F)cc1)C(c1ccccc1)N(C(=O)c1csnn1)C1CCCC1 (stereo not drawn)	2.0	3474	9	2	-8	-5	5
Cc1ccc(-n2c(C)c(C)c3c(NCCCO)ncnc32)cc1	2.3	3652	14	6	-46	1	-6
CSc1ccc(CN2CCC(n3nccc3NC(=O)c3ccccc3C)CC2)cc1	2.7	5759	-2	-2	-21	5	8
O=c1oc2ccccc2c(O)c1/C=N/c1ncccn1	x	8107	x	x	4	-7	x
COc1cc(C(=O)O)ccc1Cl	-2.0	4167	-6	6	-16	-7	-4
CN(Cc1ccccc1)C(=O)c1[nH]cnc1C(=O)Nc1cccc(Cl)c1	3.7	3292	-6	1	-27	x	0
COc1cc([N+](=O)[O-])ccc1NC(=O)NCc1ccccn1	-0.1	5094	7	4	-17	2	3
Cc1cccn2c(=O)c3cc(C(=O)NC4CCCCC4)n(C)c3nc12	2.4	5504	3	6	-36	-1	2
CC(C)(C)c1ccc(C(=O)CS(=O)(=O)c2ccccc2)cc1	10.0	2913	7	9	-48	-8	-1
C[C@H]1CCC(=O)N([C@H](CSc2ccc(Br)cc2)Cc2ccccc2)CC1	-11	3904	6	8	-6	x	-9
NC(=O)C1=CN(Cc2ccc(Cl)cc2)CCC1C(F)(F)F (stereo not drawn)	0.4	3424	-2	-2	1	8	12
CC(Sc1nncn1C)C(=O)Nc1nnc(C(C)C)s1 (stereo not drawn)	-16	6093	3	11	-5	11	-3

Just Mtb hypoxia inh growth, for some of the entries so far:
Compound,Mtb hypoxia inh growth
CN(Cc1ccccc1)C(=O)c1[nH]cnc1C(=O)Nc1cccc(Cl)c1,1
COc1cc([N+](=O)[O-])ccc1NC(=O)NCc1ccccn1,4

The results go on:
SMILES	Sa RN4220 lethal	Bead autofluor	Mtb hypoxia inh	Mtb hypoxia inh growth	PrP 5UTR inh	BJeLR viability	ugtP null kill
CCCCN(C(=O)CNC(=O)c1ccco1)C(C(=O)NC1CCCC1)c1ccc(OC)cc1 (stereo not drawn)	-3.8	3550	x	x	-8	0	14
COc1c(C)cccc1C(=O)NCCCNC(=O)c1ccc(C)nc1	1.2	3994	-1	15	8	4	2
O=C1N(Cc2cccc(Cl)c2)C[C@@H]2C[C@@H](c3c[nH]c4ccccc34)N3CCC[C@@]123	-2.8	12240	3	-2	-10	5	8
CCOP(=O)(OCC)/C(C#N)=C(\O)c1ccc(OC)cc1	2.4	3625	-7	0	-15	3	-7
O=C(N/N=C/c1ccc2nccnc2c1)c1cccc([N+](=O)[O-])c1	x	3450	x	x	-16	-6	x
COc1ccc(C)cc1S(=O)(=O)N1CC(C)OC(C)C1 (stereo not drawn)	-0.5	2456	10	7	-2	2	2
CCCCn1c(SCC(=O)N2CCOCC2)nc2c1c(=O)n(C)c(=O)n2C	-0.6	5587	-2	-7	-9	3	3
CCN(CC)C1CCN(C(=O)CCc2nnc(CCc3ccccc3)o2)C1 (stereo not drawn)	4.5	3384	5	-4	x	7	12
Cc1cccc2sc(N(CCN(C)C)C(=O)c3cc(Cl)sc3Cl)nc12	5.7	8680	6	10	-19	7	0
O=C(NCc1ccccc1)c1cc(=O)nc2sc(-c3ccccc3)nn12	13	23048*	-3	-7	1	x	1
O=C(CCCN1C(=O)C2CC=CCC2C1=O)Nc1ccccc1Cl (stereo not drawn)	3.0	5345	2	10	-30	2	7
C=CCn1c(SCCC)nc2sc3c(c2c1=O)CCc1ccccc1-3	0.4	2499	3	7	-16	-10	32
CCc1cc(-c2nc(N)ncc2-c2csc(C)n2)c(O)cc1OC	3.0	2637	-5	-1	1	-3	-1
Nc1nnc(SCC(=O)NNC(=O)c2ccccc2)s1	6.6	6000	6	-2	-28	x	10
CC(OC(=O)Cn1cnc2c1c(=O)n(C)c(=O)n2C)C(=O)NC1(C#N)CCCCC1 (stereo not drawn)	-1.2	5896	-2	8	-10	x	-4
Cc1ccc(NC(=O)c2ccccc2NS(=O)(=O)c2ccc(Cl)s2)cc1	81	10032	3	3	-60	28	90*
O=c1c2ccccc2nc(/C=C/c2ccc(Br)cc2)n1CCCO	14	3701	1	4	-14	-14	-12
Cc1ccc(C)c(OCC(=O)Nc2cccc(S(=O)(=O)NC3=NCCCCC3)c2)c1	1.7	3908	4	-3	-5	2	4
COc1ccc(S(=O)(=O)N2CCC3(CC2)CC(=O)c2ccccc2O3)cc1	1.3	u	6	-3	-4	-1	4
O=C(CCNS(=O)(=O)c1ccccc1F)NC1CCCCCC1	4.4	6583	-3	0	-11	x	2
COc1cc(CN(C)Cc2cc(=O)oc3cc(C)c(Cl)cc23)ccc1OC(F)F	4.3	3927	12	5	-22	-3	-5
Nc1ccccc1C(=O)NNC(=O)C(=O)/C=C(\O)c1ccccc1	9.8	3687	-1	-3	x	1	-4
Cn1nnnc1SCC(=O)NNC(=O)c1ccc(Br)cc1	2.9	4168	6	11	-17	8	-1
CC(=O)c1ccc(NC(=O)c2ccc3c(Cl)c4c(nc3c2)CCCC4)cc1	7.1	2641	11	2	-4	-2	-11
CN(C(=O)C1CCOC1)c1nnc(-c2cccnc2)s1 (stereo not drawn)	0.7	3555	x	x	-25	-6	14
CCOc1ccc(/C=C2\SC(=S)N(NS(=O)(=O)c3ccc(C)cc3)C2=O)cc1OC	86*	4367	4	1	-22	-4	85
CCC1CCCC1=NNC(=O)c1ccc(Cl)cc1 (stereo not drawn)	3.1	x	5	10	x	x	4
COCCNC(=O)c1ccccc1-c1nc(-c2ccccc2Cl)no1	1.5	4757	x	x	-22	0	-4
Cc1ccccc1CSc1nnc(C)c(=O)[nH]1	6.4	5831	2	0	-24	-4	11
COC(=O)C1C(=O)C2=C(CC1C)Nc1ccccc1NC2c1cccs1 (stereo not drawn)	6.2	2362	4	3	-77	0	7
CC(C)(C)NC(=O)COC(=O)c1ccc(NC(=O)CC#N)cc1	2.6	4604	18	1	-31	-3	0
Cc1cc(N=NC(=O)c2ccccc2O)c2ccccc2c1O	1.6	2481	1	2	-34	x	-10
Cc1ccnc(NC(=O)Nc2ccc3c(c2)OCO3)c1	1.4	2534	-3	1	-34	-8	3
COCCNc1nc(-c2ccccc2)nc2ccccc12	-0.1	4212	7	10	-10	-3	2
Cc1ccc(Cl)cc1NC(=O)COC(=O)CC1CCCCC1	-1.5	x	4	0	x	x	1
CNc1ncc(C(=O)C(C)(C)C)s1	0.4	3242	-2	-1	-3	0	-3

Sorted by heavy-atom count (falling): part of the list above.
SMILES	Sa RN4220 lethal	Bead autofluor	Mtb hypoxia inh	Mtb hypoxia inh growth	PrP 5UTR inh	BJeLR viability	ugtP null kill
COC(=O)C1C(=O)C2=C(CC1C)Nc1ccccc1NC2c1cccs1 (stereo not drawn)	6.2	2362	4	3	-77	0	7
Cc1cc(N=NC(=O)c2ccccc2O)c2ccccc2c1O	1.6	2481	1	2	-34	x	-10
COCCNc1nc(-c2ccccc2)nc2ccccc12	-0.1	4212	7	10	-10	-3	2
Cc1ccnc(NC(=O)Nc2ccc3c(c2)OCO3)c1	1.4	2534	-3	1	-34	-8	3
Cc1ccccc1CSc1nnc(C)c(=O)[nH]1	6.4	5831	2	0	-24	-4	11
CNc1ncc(C(=O)C(C)(C)C)s1	0.4	3242	-2	-1	-3	0	-3

(cont.)
SMILES	Sa RN4220 lethal	Bead autofluor	Mtb hypoxia inh	Mtb hypoxia inh growth	PrP 5UTR inh	BJeLR viability	ugtP null kill
CCOC(=O)C1C(c2ccccc2)C(C(=O)OCC)C1c1ccccc1 (stereo not drawn)	4.3	9355	-5	14	-12	1	3
COC(=O)Cc1ccc(NC(=S)NCCO)cc1	1.4	4027	-1	0	-5	3	5
CC(C)Oc1ccc(CN2CCC(n3nccc3NC(=O)c3cccnc3)CC2)cc1	2.6	6071	2	3	-9	1	4
CN1CCN(S(=O)(=O)NC[C@H]2O[C@@H](n3cnc4c(N)ncnc43)[C@H](O)[C@@H]2O)CC1	3.2	3283	0	-5	-2	x	4
CCOc1ncccc1C(=O)Nc1cc(S(=O)(=O)N2CCOCC2)ccc1OCC(F)(F)F	3.1	2823	-5	8	-15	x	-4
CC(C)(C)c1cc(C(=O)Nc2ccccc2)ccn1	-0.5	3895	7	17	-24	-1	8
CCn1ccc(C(=O)Nc2ccc(S(=O)(=O)Nc3ccccc3OC)cc2)n1	3.1	x	1	10	x	2	5
O=C(Nc1ccc2c(c1)CCC2)c1cccc(OC(F)F)c1	6.0	x	7	-4	x	5	11
O=C(COC(=O)CCC(=O)c1ccc(F)cc1)NC1CCCCC1	5.0	3078	9	2	-7	x	11
O=C(Nc1ccc(F)cc1)C1CCC(N2C(=O)c3ccccc3C2=O)CC1 (stereo not drawn)	2.9	9481	0	9	-27	-1	11
COCC(C)n1c(C)cc(C(=O)CSc2nnnn2-c2ccc(O)cc2)c1C (stereo not drawn)	6.4	4428	9	3	-24	2	3
Brc1ccc(CN2CCCCCC2)cc1	-1.0	u	14	0	-15	9	10
COc1ccccc1C(=O)NCCOc1ccc(C(C)(C)C)cc1	1.4	3618	-3	9	-23	6	13
CCOC(=O)C1=C(C)SC2=NS(=O)(=O)CCN21	2.8	9264	4	1	-36	3	5
CCc1noc(C)c1C(=O)NNC(=O)c1nn(CC)c(=O)c2ccccc12	4.3	5685	9	8	-4	-1	3
Cc1ccc(C)c(NC(=O)COC(=O)c2nn(C)c(=O)c3ccccc23)c1	3.6	x	9	11	-8	x	6
C=C1CCN(C(C(=O)NCc2ccccc2)C(C)C)S(=O)(=O)c2ccccc21 (stereo not drawn)	10	x	4	16	x	x	5
C/C(CC(=O)Nc1cc(C)ccn1)=N\NC(=O)c1cccc(F)c1	x	4553	x	x	1	5	x
N#Cc1c(F)cccc1NCc1cccs1	5.0	4918	7	0	-21	3	8
c1ccc(-c2cccc(-c3ccccn3)n2)nc1	4.6	11047	6	1	42	49	7
O=C(C1CCCN(c2nnc(-n3cccc3)s2)C1)N1CCN(c2ccccc2)CC1 (stereo not drawn)	-0.3	5896	1	4	-25	20	6
COc1ccc(C(=O)Nc2c(O)ccc3ccccc23)cc1OC	0.9	4280	5	10	-3	1	2
CC(C)(C)c1ccc(OC(=O)Cn2c(C(F)(F)F)nc3ccccc32)cc1	0.9	2673	x	x	-21	3	2
O=c1[nH]c2ccccc2nc1C=Cc1ccc(O)cc1	6.7	x	0	3	x	x	7
COCC(C)OC(=O)c1c(N)n(CCCN2CCOCC2)c2nc3ccccc3nc12 (stereo not drawn)	-2.3	3710	-2	0	-36	1	-5
CCNS(=O)(=O)c1ccc(NC(=S)NCc2ccco2)cc1	5.8	2652	3	6	-9	8	5
CCOC(=O)C1CCN(Cc2nnc(-c3ccccc3C)o2)CC1	-0.7	3513	3	11	-4	-14	16
CCCN1CCN(C(c2cc3cc4c(cc3[nH]c2=O)OCO4)c2nnnn2C(C)(C)C)CC1 (stereo not drawn)	0.6	2617	x	x	-2	0	0
Nn1c(SCC(=O)Nc2ccccc2)nnc1-c1cccnc1	5.3	4910	x	x	-8	3	2
CCOC(=O)CNC(=O)Cn1cnc2c(nnn2-c2ccccc2)c1=O	3.4	6044	2	5	-9	-32	-1
CCc1ccc(NC(=O)N(CCN2CCOCC2)Cc2ccc3c(c2)CCCN3CC)cc1	-0.5	8466	-9	5	x	8	1
CCOc1ccc2[nH]c(SCC(=O)OC)c([N+](=O)[O-])c2c1	2.8	4276	22	23	1	1	2
O=C(CN1C2=NCCCN2c2ccccc21)c1cccc(Br)c1	-4.8	2479	5	3	-19	3	0
OCC1(c2cc(C(F)(F)F)n[nH]2)CCCCC1	2.5	9468	7	8	-10	-8	0
CC(CN1CCOCC1)OC(=O)c1ccc(Cl)cc1Cl (stereo not drawn)	4.0	3750	13	8	-20	6	7
CCCOc1ccc(CC(=O)N/N=C\c2ccc(F)cc2)cc1	x	3295	x	x	-13	-3	x
S=c1[nH]nc(COc2ccccc2)n1N=C/C=C/c1ccccc1	7.1	x	2	3	x	x	-1
COc1cc2c(cc1OC)-c1cc(Nc3ccccc3C)nc(=O)n1CC2	-0.9	3718	8	-2	-5	-13	0
